A1 inhib: inducers of caspase activity in MEF A1-2A-BIM cells, primary screen, A1 inhibitor project, cell-based, CaspaseGlo luminescence; caspase-Glo luminescence, 3 h; percent of clofoctol signal, DMSO as zero; 21,000 tested, 0.51% active; caspase activation, % (no concentration beside the values);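 active = most replicate scores above 10, or exactly half above 10 with mean activity above 10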;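 note: effector caspase 3 and 7 activity cleaving a DEVD luciferin substrate; 50 nL library stock added to about 30 µL; numbers are from one replicate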
BJeLR viab HTS: BJeLR cell viability loss, primary screen, luminescence, CellTiterGlo ATP | BJeLR fibroblasts viability, 48 h; HRASV12, hTERT and SV40 LT/ST transformed | viability loss activity score, % (no concentration beside the values) | 30,000 tested, 0.64% active | AID 2275, 2010; in the data active = viability loss activity score above about 50%; about a fifth of its hits are not listed in these tables;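 note: higher score means fewer live cells and less ATP luminescence; stock transfer was 50 or 100 nL into about 30 µL; 0% = vehicle wells and 100% = a reference killing control; one replicate is shown; the record names a cut of 85%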
Active calls of the source: *.

Results for C[C@@H]1CN([C@@H](C)CO)C(=O)c2cc(NC(=O)Nc3ccc(F)cc3)ccc2O[C@@H]1CN(C)Cc1ccccc1 ?
A1 inhib: -0.2; BJeLR viab HTS: -0.1

Results for CC(C)C(OC(=O)c1ccccc1)c1nccc2ccccc12 (stereo not given) ?
A1 inhib: 0.1; BJeLR viab HTS: 4.6

Results for CC(C)NC(=O)Nc1ccc2c(c1)C(=O)N([C@@H](C)CO)C[C@H](C)[C@H](CN(C)C(=O)Nc1ccc(F)cc1)O2 ?
A1 inhib: 0.2; BJeLR viab HTS: 0.0

Results for O=C(CSc1nc2ccccc2o1)Nc1ccccn1 ?
A1 inhib: -3.0; BJeLR viab HTS: 0.2

Results for C[C@@H]1CN([C@H](C)CO)C(=O)c2cccc(NC(=O)C3CCOCC3)c2O[C@@H]1CN(C)Cc1ccccc1 ?
BJeLR viab HTS: 4.2

What do the screens show for `CC(C)NC(=O)N(C)C[C@H]1Oc2c(NC(=O)Nc3ccc4c(c3)OCO4)cccc2C(=O)N([C@@H](C)CO)C[C@@H]1C`?
BJeLR viab HTS: 9.1

Results for CC(C)(C)c1ccc(/C=C/C(=O)NCCCn2ccnc2)cc1 ?
A1 inhib: -0.5; BJeLR viab HTS: 0.6

How did N#Cc1c(C(F)(F)F)cc(-c2cccs2)nc1Sc1ccccc1NC(=O)c1cccs1 do in these assays?
A1 inhib: 0.1; BJeLR viab HTS: -1.8

Results for O=c1oc2cc(O)ccc2cc1-c1nc2ccccc2s1 ?
A1 inhib: -6.5; BJeLR viab HTS: 18.7

Results for Cc1nc2c(o1)N(c1ccccc1)C(N)=C(C#N)C2c1ccc(OC(C)C)cc1 (stereo not given) ?
A1 inhib: 1.3; BJeLR viab HTS: -1.1

What do the screens show for `C[C@@H]1CN([C@H](C)CO)C(=O)c2cccc(NS(=O)(=O)c3ccc(Cl)cc3)c2O[C@H]1CN(C)S(=O)(=O)c1ccccc1`?
BJeLR viab HTS: 5.6

Results for Cc1ccc(C)c(NC(=S)NC2CC(C)CC(C)(C)C2)c1 (stereo not given) ?
A1 inhib: -1.1; BJeLR viab HTS: -3.7

How did CN(Cc1ccccc1)C(=O)Cn1nc(-c2ccc(Cl)cc2)ccc1=O do in these assays?
A1 inhib: 0.5; BJeLR viab HTS: 3.2

What do the screens show for `Cc1c2cnn(-c3ccccc3)c(=O)c2c(C)n1CC(=O)NC(C)C`?
A1 inhib: 1.6; BJeLR viab HTS: -3.6

How did C[C@@H]1CN([C@@H](C)CO)C(=O)c2cc(NS(=O)(=O)c3ccc(Cl)cc3)ccc2O[C@H]1CN(C)C(=O)Nc1ccc(F)cc1 do in these assays?
A1 inhib: 0.5; BJeLR viab HTS: -1.0

What do the screens show for `OC1C=CC(O)C23OC12C(O)C=CC31Oc2cccc3cccc(c23)O1` (stereo not given)?
A1 inhib: -0.5; BJeLR viab HTS: -10.2

What do the screens show for `COC(CNC(=O)c1cc(=O)[nH]c2ccc(Br)cc12)OC`?
A1 inhib: 0.6; BJeLR viab HTS: -1.6

Results for COc1ccc(CN(C)C[C@H]2Oc3ccc(NC(=O)NC4CCCCC4)cc3C(=O)N([C@@H](C)CO)C[C@H]2C)cc1 ?
A1 inhib: 0.2; BJeLR viab HTS: 2.6

How did COc1c(CO)c(O)cc2c1C(=O)CCC2O (stereo not given) do in these assays?
A1 inhib: -0.5; BJeLR viab HTS: 3.5

Results for Cc1noc(C)c1NC(=O)N(C)C[C@H]1Oc2ccc(NC(=O)Cc3ccccc3)cc2C(=O)N([C@H](C)CO)C[C@@H]1C ?
A1 inhib: 0.5; BJeLR viab HTS: 3.2

What do the screens show for `COc1ccc(S(=O)(=O)NCc2ccccc2)cc1`?
A1 inhib: -0.5; BJeLR viab HTS: -0.8

Results for COC(=O)c1ccc(NC(=O)C(C)C)cc1 ?
A1 inhib: -0.6; BJeLR viab HTS: 8.3

Results for O=C(O)C1CCCN(S(=O)(=O)N2CCCCC2)C1 (stereo not given) ?
A1 inhib: -0.7; BJeLR viab HTS: 1.5

What do the screens show for `COc1ccc(-n2nc(C(=O)N(C)c3ccccc3)c3c4ccccc4n(C)c3c2=O)cc1`?
BJeLR viab HTS: -5.0

How did C[C@H](CO)N1C[C@H](C)[C@H](CN(C)Cc2ccc(-c3ccccc3)cc2)Oc2ccc(NC(=O)CCN3CCOCC3)cc2C1=O do in these assays?
A1 inhib: -0.6; BJeLR viab HTS: 2.3

How did COc1ccc(S(=O)(=O)Nc2ccc3c(c2)C(=O)N([C@@H](C)CO)C[C@@H](C)[C@H](CN(C)S(=O)(=O)c2ccccc2)O3)cc1 do in these assays?
A1 inhib: 0.3; BJeLR viab HTS: 1.8

Results for CC(C)(CO)NC(=S)NCC1CCCO1 (stereo not given) ?
A1 inhib: -0.7; BJeLR viab HTS: -1.1

Results for CCOC(=O)C1CCCN(C(=O)c2cc3cc4ccc(OC)cc4nc3o2)C1 (stereo not given) ?
BJeLR viab HTS: 2.8

How did O=C(Cn1ccc2ccccc21)Nc1cccc(C(F)(F)F)c1 do in these assays?
A1 inhib: -0.9; BJeLR viab HTS: -0.3

Results for C[C@H]1CN([C@@H](C)CO)C(=O)c2cc(NC(=O)Nc3cccc4ccccc34)ccc2O[C@@H]1CN(C)Cc1ccc(Cl)c(Cl)c1 ?
A1 inhib: 0.8; BJeLR viab HTS: -4.3

Results for Cc1noc(C)c1NC(=O)Nc1ccc2c(c1)C(=O)N([C@H](C)CO)C[C@H](C)[C@@H](CN(C)Cc1ccncc1)O2 ?
A1 inhib: 0.1; BJeLR viab HTS: 0.2

Results for CC(C)NC(=O)N(C)C[C@H]1Oc2ccc(NC(=O)Cn3cnnn3)cc2C(=O)N([C@H](C)CO)C[C@@H]1C ?
A1 inhib: -0.1; BJeLR viab HTS: -11.1

Results for C[C@@H]1CN([C@H](C)CO)C(=O)c2cccc(NC(=O)c3ccncc3)c2O[C@@H]1CN(C)C(=O)Nc1ccc2c(c1)OCO2 ?
BJeLR viab HTS: 0.6

How did C[C@H]1CN([C@@H](C)CO)C(=O)c2cc(NS(=O)(=O)c3cccs3)ccc2O[C@H]1CN(C)C(=O)Nc1cccc2ccccc12 do in these assays?
A1 inhib: 0.1; BJeLR viab HTS: -0.2

What do the screens show for `COC(=O)C(C(CO)Cc1ccc(O)c(OC)c1)C(O)c1ccc(O)c(OC)c1` (stereo not given)?
A1 inhib: 0.1; BJeLR viab HTS: -1.5

Results for CC(C)NC(=O)Nc1cccc2c1O[C@@H](CN(C)C(=O)Nc1ccc(C(F)(F)F)cc1)[C@@H](C)CN([C@@H](C)CO)C2=O ?
BJeLR viab HTS: -8.3

What do the screens show for `Cc1ccc(CSc2nc(C)c(Oc3cccc(C(F)(F)F)c3)c(=O)n2C)cc1`?
A1 inhib: -0.6; BJeLR viab HTS: 2.3

How did Cc1ccc(C2C(C(=O)c3ccc(Br)cc3)C(=O)C(=O)N2CCCN(C)C)cc1 (stereo not given) do in these assays?
A1 inhib: 0.0; BJeLR viab HTS: -2.0

How did CC(C)(C)OC(=O)N1CCN(Cc2ccccc2)CC1 do in these assays?
A1 inhib: 0.9; BJeLR viab HTS: -1.6

How did C[C@@H]1CN([C@H](C)CO)C(=O)c2cccc(NC(=O)Nc3ccc(F)cc3)c2O[C@@H]1CN(C)Cc1ccccc1 do in these assays?
BJeLR viab HTS: 3.5

Results for C=C(C(=O)O)C1CC=C(CCC(C)=O)[C@@H](C)CC1 (stereo not given in full) ?
A1 inhib: 0.4; BJeLR viab HTS: -3.9

What do the screens show for `O=c1cc(N2CCc3ccccc3C2)[nH]c(=O)n1Cc1ccc(F)cc1`?
BJeLR viab HTS: 4.6

Results for Cc1noc(C)c1NC(=O)N(C)C[C@H]1Oc2ccc(NC(=O)CCC(F)(F)F)cc2C(=O)N([C@@H](C)CO)C[C@H]1C ?
A1 inhib: -0.1; BJeLR viab HTS: 0.6

What do the screens show for `C[C@@H]1CN([C@H](C)CO)C(=O)c2cccc(NC(=O)Nc3ccc(F)cc3)c2O[C@@H]1CN(C)S(=O)(=O)c1cccs1`?
BJeLR viab HTS: -4.2

How did O=C(O)C1CC(c2ccccc2)=C(c2ccccc2)CC1C(=O)c1ccccc1 (stereo not given) do in these assays?
A1 inhib: 0.1; BJeLR viab HTS: -5.0

How did CC(C)NC(=O)N(C)C[C@@H]1Oc2c(NC(=O)C3CCOCC3)cccc2C(=O)N([C@@H](C)CO)C[C@@H]1C do in these assays?
BJeLR viab HTS: 0.1

Results for CC(C)NC(=O)Nc1cccc2c1O[C@H](CN(C)C(=O)Nc1ccc(F)cc1)[C@H](C)CN([C@H](C)CO)C2=O ?
BJeLR viab HTS: 6.0

What do the screens show for `COC(=O)c1ccc(C2N(Cc3ccc(F)cc3)CCCN2Cc2ccc(F)cc2)cc1`?
A1 inhib: 0.4; BJeLR viab HTS: -1.4

What do the screens show for `Cc1nc2cc(NS(=O)(=O)c3ccc(Oc4ccccc4)cc3)ccc2s1`?
BJeLR viab HTS: -2.1

Results for CC(C)NC(=O)N(C)C[C@@H]1Oc2c(NC(=O)c3nc4ccccc4s3)cccc2C(=O)N([C@@H](C)CO)C[C@H]1C ?
BJeLR viab HTS: 1.8

How did C[C@H]1CN([C@@H](C)CO)C(=O)c2cccc(NS(=O)(=O)c3ccccc3)c2O[C@H]1CN(C)S(C)(=O)=O do in these assays?
BJeLR viab HTS: 2.0

How did COc1ccc(/C=C/C(=O)O[C@]2(C)CCC3C(C(=O)O)=CO[C@@H](O[C@@H]4O[C@H](CO)[C@@H](O)[C@H](O)[C@H]4O)[C@@H]32)cc1 (stereo not given in full) do in these assays?
A1 inhib: -0.9; BJeLR viab HTS: -0.1

Results for CCN1/C(=C2\C(=O)N=C(C)N2c2ccccc2)C=Cc2ccc(C)cc21 ?
BJeLR viab HTS: -1.0

How did CCCOC(=O)C(C)Oc1ccc2c(=O)c(-c3ccccc3Cl)coc2c1 (stereo not given) do in these assays?
A1 inhib: -0.1; BJeLR viab HTS: -1.0

How did C[C@@H]1CN([C@H](C)CO)C(=O)c2cccc(NC(=O)c3ccncc3)c2O[C@H]1CN(C)S(=O)(=O)c1ccc(F)cc1 do in these assays?
BJeLR viab HTS: -0.8

How did C[C@H]1CN([C@@H](C)CO)C(=O)c2cc(NC(=O)CCC(F)(F)F)ccc2O[C@H]1CN(C)CC1CCCCC1 do in these assays?
A1 inhib: 1.1; BJeLR viab HTS: -1.5

What do the screens show for `Cc1noc(C)c1NC(=O)N(C)C[C@@H]1Oc2ccc(NS(=O)(=O)c3c(C)noc3C)cc2C(=O)N([C@@H](C)CO)C[C@H]1C`?
A1 inhib: -0.4; BJeLR viab HTS: -7.6

Results for COc1c(OC)c2c(C)cccc2oc1=O ?
A1 inhib: 0.1; BJeLR viab HTS: -5.7

How did C[C@@H]1CN([C@H](C)CO)C(=O)c2cc(NC(=O)Cc3cn(C)c4ccccc34)ccc2O[C@H]1CN(C)CC1CCCCC1 do in these assays?
A1 inhib: -0.6; BJeLR viab HTS: -1.2

What do the screens show for `COc1ccc(N(C(C)=O)S(=O)(=O)c2ccc(C)cc2)cc1`?
A1 inhib: -0.1; BJeLR viab HTS: 1.1

2 entries drawn at random from the list so far:
Results for C=C(C(=O)O)C1CC=C(CCC(C)=O)[C@@H](C)CC1 (stereo not given in full) ?
A1 inhib: 0.4; BJeLR viab HTS: -3.9

How did O=C(O)C1CC(c2ccccc2)=C(c2ccccc2)CC1C(=O)c1ccccc1 (stereo not given) do in these assays?
A1 inhib: 0.1; BJeLR viab HTS: -5.0

Next part:
What do the screens show for `Cc1noc(C)c1S(=O)(=O)Nc1ccc2c(c1)C(=O)N([C@@H](C)CO)C[C@H](C)[C@H](CN(C)C(=O)Nc1ccc3c(c1)OCO3)O2`?
A1 inhib: -0.7; BJeLR viab HTS: 1.4

How did O=C1OC(c2ccc(O)cc2)(c2ccc(O)cc2)c2ccccc21 do in these assays?
A1 inhib: 1.0; BJeLR viab HTS: 2.4

Results for C[C@H](CO)N1C[C@H](C)[C@@H](CN(C)CC2CCCCC2)Oc2ccc(NC(=O)Nc3ccc(F)cc3)cc2C1=O ?
A1 inhib: -0.2; BJeLR viab HTS: 0.5

What do the screens show for `C[C@@H]1CN([C@@H](C)CO)C(=O)c2cc(NS(C)(=O)=O)ccc2O[C@H]1CN(C)C(=O)Nc1ccc2c(c1)OCO2`?
A1 inhib: 1.3; BJeLR viab HTS: 0.1

Results for C[C@@H]1CN([C@H](C)CO)C(=O)c2cccc(NC(=O)c3ccc(-c4nccs4)cc3)c2O[C@@H]1CN(C)C(=O)Nc1ccc(F)cc1 ?
BJeLR viab HTS: -9.2

How did C[C@H]1CN([C@@H](C)CO)C(=O)c2cccc(NC(=O)Nc3ccc(C(F)(F)F)cc3)c2O[C@H]1CN(C)S(=O)(=O)c1ccccc1 do in these assays?
BJeLR viab HTS: -7.5

What do the screens show for `CC(C)NC(=O)Nc1ccc2c(c1)C(=O)N([C@@H](C)CO)C[C@@H](C)[C@@H](CN(C)S(=O)(=O)c1cn(C)cn1)O2`?
A1 inhib: -0.1; BJeLR viab HTS: -3.6

What do the screens show for `CNC[C@@H]1Oc2ccc(NC(=O)Nc3ccccc3)cc2C(=O)N([C@H](C)CO)C[C@H]1C`?
A1 inhib: -0.6; BJeLR viab HTS: 0.4

Three entries out of the list, arranged by SMILES length, rising.
Results for C[C@H](CO)N1C[C@H](C)[C@@H](CN(C)CC2CCCCC2)Oc2ccc(NC(=O)Nc3ccc(F)cc3)cc2C1=O ?
A1 inhib: -0.2; BJeLR viab HTS: 0.5

What do the screens show for `CC(C)NC(=O)Nc1ccc2c(c1)C(=O)N([C@@H](C)CO)C[C@@H](C)[C@@H](CN(C)S(=O)(=O)c1cn(C)cn1)O2`?
A1 inhib: -0.1; BJeLR viab HTS: -3.6

How did C[C@H]1CN([C@@H](C)CO)C(=O)c2cccc(NC(=O)Nc3ccc(C(F)(F)F)cc3)c2O[C@H]1CN(C)S(=O)(=O)c1ccccc1 do in these assays?
BJeLR viab HTS: -7.5

Screening data: PubChem BioAssay, Broad Institute

Not all compounds are listed; rates above refer to the full screens.
